Menin-MLL FL inh: inhibitors of human menin-MLL interaction, wild-type MLL peptide; 290,000 tested, under 10 active; FP activity change, % at 61.4 µM; Fluorescence polarization, fluorescein-MLL peptide displacement from menin; inconclusive = falling polarisation curve, or a change in total fluorescence; inactive = total fluorescence flat and polarisation flat or rising; no compound was filed as active; the % refers to the polarisation; negative = inhibition;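 note: % of control where 0% means no effect; inhibitors lower the polarisation; unlabelled MLL peptide was the positive control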
TRPV1 potentiator: potentiators of human vanilloid receptor 1 (TRPV1) | TRPV1-expressing cells, Fluo-8 calcium influx, capsaicin EC20 potentiation; host cell line not named in the record; control for the full effect not named in the record | potentiation, % at 8.33 µM | actives 0.02% (n = 320,000) | AID 540277; active means potentiation above 80%; inconclusive means 30% to 80%; inactive means below 30%; note: 0% is about no effect
Target sequence (Q8NER1 whole entry, looked up): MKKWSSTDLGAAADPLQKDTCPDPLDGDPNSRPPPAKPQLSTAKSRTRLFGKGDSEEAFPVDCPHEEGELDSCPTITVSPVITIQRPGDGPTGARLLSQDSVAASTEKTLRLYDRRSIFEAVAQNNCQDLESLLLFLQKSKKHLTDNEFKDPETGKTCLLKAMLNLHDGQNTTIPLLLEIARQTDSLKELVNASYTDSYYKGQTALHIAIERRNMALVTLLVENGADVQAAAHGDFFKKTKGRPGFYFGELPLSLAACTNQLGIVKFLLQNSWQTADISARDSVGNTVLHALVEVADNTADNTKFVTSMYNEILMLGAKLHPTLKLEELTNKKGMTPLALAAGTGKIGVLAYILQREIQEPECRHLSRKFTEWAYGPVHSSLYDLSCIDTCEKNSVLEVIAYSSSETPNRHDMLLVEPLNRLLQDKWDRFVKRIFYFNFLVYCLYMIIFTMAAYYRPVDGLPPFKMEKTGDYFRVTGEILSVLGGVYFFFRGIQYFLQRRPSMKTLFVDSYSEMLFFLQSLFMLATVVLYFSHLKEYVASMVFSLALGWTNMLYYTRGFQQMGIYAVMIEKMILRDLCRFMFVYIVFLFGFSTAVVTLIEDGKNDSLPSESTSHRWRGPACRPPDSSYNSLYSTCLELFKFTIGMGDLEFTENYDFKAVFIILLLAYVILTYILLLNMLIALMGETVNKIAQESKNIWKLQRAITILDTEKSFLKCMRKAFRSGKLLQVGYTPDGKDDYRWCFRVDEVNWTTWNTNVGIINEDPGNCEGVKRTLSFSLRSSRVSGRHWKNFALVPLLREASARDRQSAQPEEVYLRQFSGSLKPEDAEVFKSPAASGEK
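TRPV1-expressing cells were cultured overnight at 35.5C and loaded with Fluo-8 calcium dye for 40 to 90 min at room temperature. After a 10 s baseline, compound was added and calcium influx was read kinetically for 3 min (ex 480/em 520 nm).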
CtBP-E1A blk: blocks the CtBP interaction with E1A | actives 0.49% (n = 340,000) | activity change, % (concentration not given with the values) | AlphaScreen GST-E1A/His-CtBP binding, 1536-well; stronger effect = lower value; control for the full effect not named in the record; in the data active means activity change below about -65%; inconclusive means about -30% to -65%; inactive means above about -30%; note: % is set by controls: 0 for no effect and ±100 for the full control effect
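AlphaScreen with 125 nM GST-E1A and 125 nM His-CtBP (5X stocks) in Tris pH 8.0, 300 mM NaCl, BSA, Tween 20, TCEP. Compounds preincubated 2 h at 37 deg C, then glutathione donor/nickel acceptor beads added for 1 h at 37 deg C in dark.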
Sfp PPTase inh: Sfp phosphopantetheinyl transferase inhibition | Q9F4F7 | Biochemical Sfp PPTase activity, qHTS | Potency, µM, for inactives: max response, negative = inhibition, usual class: inhibitors | actives 3.5% (n = 310,000) | AID 1490; active = well fitted inhibition curve with a large enough effect; inconclusive = small, poorly fitted or top-dose-only effect, or another doubt; inactive = no such curve, though single readings can be large or run the other way;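 note: the enzyme is Sfp with the accession as filed and its product quenches rhodamine fluorescence; potency is the fitted concentration of half-maximal effect; 0% = enzyme reaction without inhibitor and -100% = no enzyme wells; top concentration of the series not given in the record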
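After 15 min at room temperature with compound, 15 nM Sfp received 5 uM rhodamine-CoA plus 12.5 uM BHQ-2-ybbR (50 mM Hepes pH 7.6, 10 mM MgCl2). Rate came from the fluorescence difference over 30 min, ex 525/em 598 nm.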
gsp antagonist: gsp mutant antagonism | Potency, µM (series often up to 76.9 µM), inactives show top-dose activity change, negative = inhibition, actives largely listed as inhibitors | gsp-mutant cells, cAMP HTRF, 30 min; control for the full effect not named in the record | actives 0.4% (n = 340,000) | AID 624288; active = falling curve of any shape with a large fitted effect; inconclusive = falling curve, mostly with a smaller effect; inactive = flat or rising curve; cell line not stated here;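 note: intracellular cAMP measured with PDE inhibitor Ro 20-1724 present during compound exposure; potency is the fitted concentration of half-maximal effect; % is set by controls: 0 for no effect and ±100 for the full control effect; nearly all actives have a fitted effect of over 65% in size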
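Cells in G418 medium, seeded 16-24 h, 37C; buffer exchange to DPBS + 1 mM CaCl2, 0.5 mM MgCl2, 0.05% BSA; cpds in DMSO + […] (300 uM stock), 30 min 37C; HTRF cAMP detection.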
ClpP mod: qHTS Assay for Activators of ClpP | ATP-dependent Clp protease proteolytic subunit (Bacillus subtilis (strain 168)), P80244 | purified B. subtilis ClpP, FRET peptide cleavage, 20 min | Potency, µM (doses to about 57.5 µM), inactives show at the highest dose activity change, negative = active | actives 1.9% (n = 340,000) | AID 651965, 2013; active = well fitted falling curve with a large enough effect; inconclusive = small, poorly fitted or top-dose-only effect; inactive = no such curve, though single readings can be large or run the other way; note: potency is the fitted concentration of half-maximal effect; the source files actives as falling curves though it sought activators and does not explain the sign; nearly all actives have a fitted effect of over 65% in size; many hits overshoot -100%
Target sequence (P80244 whole entry, looked up): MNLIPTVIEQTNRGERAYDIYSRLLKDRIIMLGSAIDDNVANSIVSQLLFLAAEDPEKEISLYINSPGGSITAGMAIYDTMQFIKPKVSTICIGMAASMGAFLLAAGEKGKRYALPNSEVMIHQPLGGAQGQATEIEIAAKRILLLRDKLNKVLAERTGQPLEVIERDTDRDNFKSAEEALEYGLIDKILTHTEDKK
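FRET quenching reversal measured ClpP activation: 10 microg/mL B. subtilis ClpP at pH 8 with the FRET-FV decapeptide, read at 430 nm after 320 nm excitation. The 20-min minus 0-min signal was scaled between DMSO/no-enzyme wells and ADEP (5.8 microM final).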
gsp ag: activates gsp, the McCune-Albright syndrome mutation; Potency, µM (doses to about 76.9 µM), for inactives: at the highest dose activation (cAMP increase), hits mostly activators; actives 0.13% (n = 340,000); gsp mutant cells, cAMP HTRF, 30 min; control for the full effect not named in the record; active = well fitted activation curve with a large enough effect; inconclusive = small, poorly fitted or top-dose-only effect, or another doubt; inactive = no such curve, though single readings can be large or run the other way; cell line not stated here;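 note: phosphodiesterase inhibitor Ro 20-1724 added with compounds to block cAMP breakdown; potency is the fitted concentration of half-maximal effect; nearly all actives have a fitted effect of over 60% in size; about a fifth of the inactives were tested at one dose only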
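Cells stably selected in G418 were plated at 2000/well, grown 16-24 hr, then given compounds in DMSO with the PDE inhibitor […] (300 uM solution added) for 30 min at 37C; cAMP was read by HTRF.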
Active calls of the source: *; ? = inconclusive; nt = not tested or not shown; [ ] = remark or other dose.

entry	SMILES	Menin-MLL FL inh	TRPV1 potentiator	CtBP-E1A blk	Sfp PPTase inh	gsp antagonist	ClpP mod	gsp ag
1	Cc1cc(Nc2cc(Cl)cc(Cl)c2)nc(N)n1	-1.1	17	nt	-10%	0%	-1.0%	3%
2	C=CCOc1c(OC)cc(/C=N/Nc2cccc(C(=O)O)c2)c(Br)c1Br	4.2	15	-19	-4%	7%	-6.8%	7%
3	Cc1c(C(=O)N2CCOCC2)c(S(=O)(=O)N2CCN(c3ccc(Cl)cc3)CC2)c(C)n1C	-2.4	11	-2	17%	-2%	-0.8%	38%
4	CC(=O)c1ccc(NC(=S)N2CCN(CCO)CC2)cc1	0.4	-1	1	26%	3%	7.5%	3%[15.4 µM]
5	CC(=O)Cc1ccccc1OC(=O)c1ccco1	2.6	5	2	20%	14%	-1.5%	5%
6	CCCCN(C(=O)c1cccc(S(=O)(=O)N2CC(C)OC(C)C2)c1)c1c(N)n(CC(C)C)c(=O)[nH]c1=O (stereo not given)	2.0	4	4	8%	5%	-5.5%	-61%[inhibitor]
7	O=C(NN=Cc1ccccc1O)C1CC1	nt	nt	?	nt	0%	nt	-10%
8	COc1ccc(C(CNC(=O)CNC(=O)c2cccc(F)c2)N2CCOCC2)cc1 (stereo not given)	nt	nt	-1	nt	nt	-3.4%	-11%
9	COc1ccc(NC(=O)Cn2c(=O)sc3ccccc32)c(OC)c1	3.9	nt	-1	-1%	5%	1.4%	-29%
10	COc1ccccc1NS(=O)(=O)c1cc(NC(=O)c2cccs2)ccc1N1CCCC1	6.2	?	-14	20µM*	-1%	-4.5%	-23%
11	COC(=O)c1c(C)[nH]c(C(=O)COC(=O)CCc2ccc(OC)c(OC)c2)c1C	nt	nt	-5	nt	nt	2.2%	-21%
12	O=C(N/N=C/c1ccc([N+](=O)[O-])cc1)c1cccnc1	4.3	-4	nt	16%	-6%	-3.3%	?
13	CN(C)c1ccc(C=Nc2ccc(N(C)C)cc2)cc1	0.6	8	?	22µM*	?	1.6%	5%
14	O=C1NC2(CCCCCC2)C(=O)N1Cc1ccc(Cl)cc1Cl	4.2	-17	19	-3%	-18%	nt	-17%[15.4 µM]
15	CCSc1nnc(NC(=O)C2CCCCC2)s1	5.5	-2	-1	8%	-2%	-0.5%	-1%
16	Cc1cc(O)cc(=O)n1Cc1ccccc1	nt	nt	-4	nt	8%	1.4%	-51%[inhibitor]
17	COc1ccc(CNC(=O)C2CCN(C(=O)[C@@H](CC(C)C)NC(=O)OC(C)(C)C)CC2)cc1	3.7	-10	nt	3%	nt	nt	nt
18	COC(=O)C(=Cc1ccccc1[N+](=O)[O-])C(=O)OC	-11	-1	nt	-15%	-3%	-0.8%	-6%
19	CCCCn1c(=O)c(CC(C)=O)nc2ccccc21	6.0	-8	4	-1%	5%	nt	-1%
20	COc1ccc(C2=NOC(C3(S(=O)(=O)c4ccccc4)CC(O)C3)C2)cc1 (stereo not given)	nt	nt	nt	nt	-3%	-4.8%	-4%
21	Cc1csc(SC(C)C(=O)NC2CCCCC2C)n1 (stereo not given)	nt	19	10	nt	-3%	nt	7%[15.4 µM]
22	COc1ccc(CNc2nc3nc4c(c(=O)n3[nH]2)CCC4)cc1	3.8	22	4	12%	-5%	-0.3%	-13%
23	CCN1CCN(c2nc(-c3ccccc3)nc3ccccc23)CC1	3.6	-17	0	0%	25%	-0.5%	-30%
24	COc1ccc(CNc2nc(S(=O)(=O)c3ccccc3)c(Cl)s2)cc1OC	5.5	2	-8	-4%	-24%	-8.9%	-3%[15.4 µM]
25	O=C(CN1CCN(c2ccc(F)cc2)CC1)N(C1CCCC1)C1CCS(=O)(=O)C1 (stereo not given)	nt	7	2	nt	0%	1.7%	-1%[15.4 µM]
26	Fc1ccc(C2CC(c3ccco3)n3ncnc3N2)cc1 (stereo not given)	4.8	-1	-9	4%	0%	-16%	13%
27	CCn1cc(C2C(C(=O)Nc3ccc(Br)cn3)=C(C)NC3=C2C(=O)CCC3)c(C)n1 (stereo not given)	4.6	4	1	-8%	-14%	0.9%	-2%[15.4 µM]
28	S=C(NCc1ccccn1)Nc1ccc(Cl)cc1Cl	4.9	-3	0	-21%	10%	1.0%	0%
29	CCOC(=O)C1=C(C)NC(C)=C(C(=O)OCC)C1C(=O)OCC(=O)NCc1ccccc1	nt	nt	9	nt	1%	3.1%	0%[15.4 µM]
30	C#CCCc1ccccc1/C=[N+](/C)[O-]	nt	29	5	nt	1%	-10%	7%
31	O=P(O)(Cc1ccccc1)Cc1ccccc1	6.1	-34	8	10%	12%	nt	-20%
32	COc1ccc(CNc2ncnc3c2[nH]c2cc(OC)c(OC)cc23)cc1	0.0	-3	?	-23%	-12%	nt	0%[15.4 µM]
33	COc1ccccc1/C=N/N1CCN(c2ccc(Cl)cc2)CC1	-3.0	-10	nt	3%	-8%	-0.3%	-52%[inhibitor]
34	N#Cc1ccc(C(=O)N2CCN(S(=O)(=O)c3ccc(Br)s3)CC2)cc1	-0.1	0	nt	6%	-4%	0.4%	-76%[inhibitor]
35	CC(SC1=NCCN1S(=O)(=O)c1ccc(F)cc1)c1ccccc1 (stereo not given)	nt	1	17	-2%	-23%	0.6%	-40%[inhibitor]
36	COC(=O)C1=C(C)N(Cc2ccccc2)C(=NCc2ccc(OC)cc2)N[C@H]1c1cccc(F)c1	0.5	7	-3	-7%	7%	-1.1%	nt
37	Cc1c(/C=N/Nc2nc3ccccc3[nH]2)c2ccccc2n1C	0.9	-1	?	?	40µM*	-0.2%	6%[15.4 µM]
38	CCc1ccc(CN2CCCC(CNS(=O)(=O)c3ccc(OC)cc3)C2)cc1 (stereo not given)	-3.7	14	16	7%	nt	nt	-1%[15.4 µM]
39	COC(=O)c1ccccc1NC1OC(=O)c2ccccc21 (stereo not given)	1.0	0	-1	11%	8%	32µM*	-33%[inhibitor]
40	O=Cc1cccn1-c1nccc(-c2ccco2)n1	4.1	10	5	7%	1%	nt	27%
41	CN(CC(=O)Nc1ccccc1Cl)C(=O)c1ccc(Cl)c(S(=O)(=O)N2CCCCCC2)c1	nt	nt	-4	nt	-19%	nt	3%
42	Cc1ccc(NC(=O)c2cccs2)cc1	1.3	-3	-2	12%	-5%	-1.4%	20%
43	Cc1cccc(NC(=O)Cc2ccc(-c3ccccc3)cc2)n1	7.4	-12	9	0%	-4%	-1.8%	?
44	O=C(Nc1ccccc1Cl)O/N=C/c1ccc(F)cc1	nt	nt	-2	nt	14%	1.1%	-3%[15.4 µM]
45	CC(C)CNC(=O)COC(=O)c1c2c(nc3ccccc13)/C(=C\c1cccs1)CC2	nt	nt	42	nt	9%	-0.1%	32%[15.4 µM]
46	COc1ccc(NC(=S)N2CCOCC2)c(OC)c1	1.7	1	-4	19%	2%	2.0%	-12%
47	CCc1cc(=O)[nH]c(SCC(=O)N2CCOCC2)n1	nt	8	13	nt	-2%	nt	-14%[15.4 µM]
48	COc1ccc(CN(CCc2ccccc2)Cc2ccccc2)cc1OC	-3.3	-11	19	-36%	8%	-1.3%	-49%[inhibitor]
49	O=C1CCC(=O)N1c1ccc(-c2nc3ccccc3s2)cc1	4.9	1	-25	10%	2%	nt	0%
50	CCOC(=O)c1ccccc1-n1c(C)cc(C2N=C(N)Nc3nc4ccccc4n32)c1C (stereo not given)	1.8	4	-15	-27%	2%	-4.2%	-27%
51	Cc1cccc(N(C)C(=O)c2cc(S(=O)(=O)N3CCc4ccccc43)cn2C)c1	4.1	1	-5	-3%	-8%	-0.3%	1%
52	O=C(NCc1cccs1)c1cc(-c2ccccc2)on1	4.7	-2	5	9%	0%	0.4%	-25%
53	CNc1ccc(Br)cc(C(=O)/C=C/c2ccc3c(c2)OCO3)c1=O	?	4	-7	18µM*	-13%	-1.1%	10%
54	CSc1ncccc1C(=O)OCc1ccc(COC(=O)c2cccnc2SC)cc1	0.0	4	nt	15%	nt	nt	nt
55	O=C(NC(=O)c1ccccc1N1CCCCC1)Nc1ccc(Br)cc1	1.4	17	6	4%	-4%	-2.7%	-2%
56	CC(=O)CC(C)(C)S(=O)(=O)c1ccc(NC(C)=O)cc1	0.3	?	6	-3%	4%	0.0%	-34%[inhibitor]
57	COc1ccc(NC(=O)NCCN2CCN(c3ccc(C)cc3)CC2)c(Cl)c1	-3.7	0	nt	2%	5%	-2.1%	-8%
58	N#C/C(=C(/O)COc1ccc(Br)cc1)c1nnc2n1CCCCC2	-2.8	3	nt	6%	-5%	-2.4%	7%
59	CCCCC(CCC(=O)Nc1cccc([N+](=O)[O-])c1)C(=O)O (stereo not given)	2.7	-5	-1	40%[activator]	7%	nt	-1%[15.4 µM]
60	COC(=O)c1ccc(Cl)c(NC(=O)CN(c2ccccc2)S(=O)(=O)c2ccc(OC)cc2)c1	-1.3	-6	-9	5%	-8%	-5.7%	-33%[inhibitor]

(listing goes on)
entry	SMILES	Menin-MLL FL inh	TRPV1 potentiator	CtBP-E1A blk	Sfp PPTase inh	gsp antagonist	ClpP mod	gsp ag
61	COCC(=O)c1[nH]c2ccccc2c1C	0.9	2	0	26%	-3%	-2.3%	-36%[inhibitor]
62	CCOC(=O)c1c(COc2ccccc2)oc2ccc(O)cc12	1.9	18	-3	-19%	-11%	-9.1%	-20%
63	CCOc1ccc(C(=O)NCC(=O)OCC(=O)Nc2ccccc2OC)cc1	0.4	-31	2	4%	-5%	0.3%	-27%
64	CCOC(=O)c1cc2c(ccn2C)n1Cc1ccc(Cl)cc1	-0.2	-3	nt	-12%	5%	-15%	-20%
65	O=C1ON=C(c2ccc([N+](=O)[O-])cc2)/C1=C/c1ccccc1O	-0.9	-4	-1	40µM*	10%	nt	-2%[15.4 µM]
